# Compound activity (PubChem)
# Beta2AR agonist: activates human beta-2 adrenergic receptor causing internalization; P07550; Am2.2-beta2AR cells, FAP receptor internalization, flow cytometry; reference of the scale not given here; response, % (test concentration not listed); hit rate 0.43% among 340,000; AID 504454;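 active = response above a set limit, near 3 SD of response in nonfluorescent compounds, cut at about 42% in these data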;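 note: stock transfer was 100 nL into about 11 µL; a reference agonist was the positive control; negative values mostly stem from fluorescent compounds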
# FGF22 binding: shifts melting point of recombinant human FGF22 | calls only at 9.99 µM | hit rate 1.5% among 340,000 | recombinant FGF22 thermal shift, SYPRO orange fluorescence; percent of sucrose octasulfate shift, DMSO zero | Q9HCT0 | AID 651658;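 active = melting point raised past a set limit in the mean and every replicate; three in four hits are not shown here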
# HNF4A DNA FP: change in binding of human HNF4 alpha to DNA | P41235 | HNF4a-FITC DNA binding, fluorescence polarization, 1 h | activity change, % at 10 µM | hit rate 0.3% among 360,000 | AID 1224865; in the data active = activity change above about 30%, passing the limit was not always enough;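 note: controls were the assay level and a saturating level of protein; the project sought stronger binding though the title names inhibitors; some compounds called inactive have numbers as strong as hits; positive values seem to mean higher polarization but the record does not say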
# Target sequence (P41235 whole entry, looked up): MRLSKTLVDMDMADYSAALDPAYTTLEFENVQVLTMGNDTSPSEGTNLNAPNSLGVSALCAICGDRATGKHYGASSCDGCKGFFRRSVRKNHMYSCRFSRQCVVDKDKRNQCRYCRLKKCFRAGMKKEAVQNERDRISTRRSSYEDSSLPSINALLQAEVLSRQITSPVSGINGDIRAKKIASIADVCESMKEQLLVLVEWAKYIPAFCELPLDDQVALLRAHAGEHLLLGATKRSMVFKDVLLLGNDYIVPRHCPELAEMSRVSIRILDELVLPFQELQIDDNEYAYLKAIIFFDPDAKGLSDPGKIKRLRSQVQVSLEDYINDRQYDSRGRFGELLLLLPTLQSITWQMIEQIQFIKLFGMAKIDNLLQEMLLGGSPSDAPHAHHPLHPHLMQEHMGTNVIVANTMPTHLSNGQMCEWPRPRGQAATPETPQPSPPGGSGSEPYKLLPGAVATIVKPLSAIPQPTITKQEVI
# E coli growth: blocks Escherichia coli growth; AID 1053175; OD600, 23 h; hits give low values; OD600 absorbance (no concentration beside the values); hit rate 0.21% among 330,000;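 active = OD600 absorbance below the run mean of sample wells minus 3.6 SD, in any replicate, cut at about 0.56 in these data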;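 note: stock transfer was 300 nL into about 60 µL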
# ALR inh: human ALR oxidase inhibition via reduced H2O2 | hit rate 3.8% among 290,000 | purified ALR, DTT oxidation, H2O2 HRP-luminol luminescence | AID 485317 | inhibition, % (concentration not given with the values) | P55789;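 active = mean and each replicate at 75% or more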;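 note: stock transfer was 7.5 nL into about 7.5 µL; 0% = neutral wells and 100% = wells with inactivated enzyme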
# Target sequence (P55789 whole entry, looked up): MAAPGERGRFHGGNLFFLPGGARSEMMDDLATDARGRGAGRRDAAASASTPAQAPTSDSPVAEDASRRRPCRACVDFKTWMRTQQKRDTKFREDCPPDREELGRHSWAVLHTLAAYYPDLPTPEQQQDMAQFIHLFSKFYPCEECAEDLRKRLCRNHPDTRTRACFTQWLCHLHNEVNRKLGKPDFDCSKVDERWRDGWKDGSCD
# rRNA inh HTS: selective bacterial rRNA inhibition in E. coli | E. coli WT GFP vs humanized-ribosome RFP mutants, fluorescence, 24 h; hits give low values; DMSO median 0, no signal -100 | GFP signal change (wild-type ribosome), % (test concentration not listed) | hit rate 1.6% among 350,000 | AID 720706;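 active = significant combined selectivity score with lowered wild-type GFP, culture density cut under 30%, mutant RFP and density less affected; inactive = any of these conditions unmet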; note: one replicate is shown; some compounds called inactive have numbers as strong as hits
# UCH37 inh: blocks the human deubiquitinase UCH37 | Q9Y5K5 | purified proteasome/UCH37, Ub-AMC cleavage fluorescence | inhibition, % (concentration not given with the values) | hit rate 0.33% among 330,000;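 active = mean of two replicates above 20%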;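 note: 0% = compound-free wells with enzyme and 100% = wells lacking proteasome; stock transfer was 100 nL into about 20 µL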
# Target sequence (Q9Y5K5 whole entry, looked up): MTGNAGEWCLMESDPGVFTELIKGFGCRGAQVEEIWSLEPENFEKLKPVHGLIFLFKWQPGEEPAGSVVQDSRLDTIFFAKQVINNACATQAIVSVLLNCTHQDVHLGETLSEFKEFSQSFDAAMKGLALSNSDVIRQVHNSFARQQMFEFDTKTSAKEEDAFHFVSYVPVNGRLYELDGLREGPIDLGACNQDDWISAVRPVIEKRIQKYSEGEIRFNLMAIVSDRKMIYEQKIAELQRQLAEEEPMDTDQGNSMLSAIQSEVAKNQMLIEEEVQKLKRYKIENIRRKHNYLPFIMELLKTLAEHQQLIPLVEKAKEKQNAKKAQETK
#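 Material: Human UCH37 enzyme supplied as purified proteasome complex | Schedule: 30 min compound-proteasome preincubation then 25 min substrate reaction, room temperature | Detection: AMC fluorescence from Ub-AMC cleavage, excitation 355 nm, emission 460 nm | Benchmarks: Wells without proteasome as full block, compound-free enzyme plus substrate as uninhibited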
# rRNA inh HTS OD600: also measured in rRNA inh HTS; calls as there; OD600 change, %; measured here: OD600 growth;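 optical density of the mix in the first replicate; 0 = DMSO median and -100 = no signal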
# rRNA inh HTS RFP: recorded beside rRNA inh HTS, whose call it bears; RFP signal change, %; measured here: RFP humanized mutant strains;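 first replicate; 0 = DMSO median and -100 = no signal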
# * hit, by the source's call; i = inactive; / = not tested or not shown. Some of the compounds tested; rates above refer to the full screens.
SMILES,Beta2AR agonist,FGF22 binding,HNF4A DNA FP,E coli growth,ALR inh,rRNA inh HTS,rRNA inh HTS OD600,rRNA inh HTS RFP,UCH37 inh
O=C(Cn1c(=O)n(CC(=O)NCc2ccccc2)c2ccccc21)NCc1ccccc1,-1,/,-2.1,0.77,5,/,/,/,8.0
CC(C)N=C1SC(CC(=O)Nc2ccccc2)C(=O)N1C(C)C (stereo not drawn),-11,i,1.4,0.71,/,7,8,-0.8,1.2
Cc1ccccc1SCC(=O)OCC(=O)NCCNC(=O)COC(=O)CSc1ccccc1C,1,i,1.8,0.67,/,1,-4,-1.5,2.7
O=C(O)CCCCCNS(=O)(=O)c1ccc2c(c1)OCCO2,0,i,-4.5,0.64,2,10,9,2.5,2.4
CC(=O)N1CC=CC1(CC(C)C)C(=O)NCc1cc(F)cc(C(F)(F)F)c1 (stereo not drawn),4,i,0.8,0.58,-4,8,-4,8.1,3.2
COc1ccc(-c2c(C#Cc3ccsc3)c3cc(-c4ccc(OC)c(F)c4)ccc3n2C)cc1,-3,i,11,0.83,-6,4,3,6.4,1.7
CCC(C)NCCOCCOc1ccc(Cl)cc1Br (stereo not drawn),3,i,-0.5,0.71,/,-8,-12,1.2,3.2
CC(C)OC(=O)c1cccnc1N1CCN(c2cccc(Cl)c2)CC1,1,i,-4.3,0.69,1,-10,-7,-5.7,2.2
CCOc1ccccc1N(CC(=O)Nc1c(C)n(C)n(-c2ccccc2)c1=O)S(=O)(=O)c1ccccc1,-14,i,6.8,0.7,-4,4,5,-1.7,-1.0
CC(C)NC(=O)C1CCN(C(=O)c2ccc(-c3ccccc3)cc2)CC1,0,/,0.5,0.73,0,/,/,/,1.0
COc1ccc(CCNC(=O)COC(=O)C2COc3ccccc3O2)cc1 (stereo not drawn),-1,i,-3.2,0.68,-1,-5,-2,2.3,2.3
O=C(Nn1c(C2CCCCC2)nc2ccccc2c1=O)c1ccc([N+](=O)[O-])cc1Cl,8,/,4.4,0.71,-14,/,/,/,2.1
O=C(C1=C[C@@H](c2ccc(C(F)(F)F)cc2)C[C@@H](OCCCCO)O1)N1CCCCCCC1,2,i,5.9,/,-7,3,0,-0.6,3.0
O=C1CCC(=O)N1c1ccc(S(=O)(=O)N2CCCC2)cc1,7,i,-3.2,0.68,-1,17,15,1.3,0.2
NNC(=O)c1ccc(CN2CCCCC2)o1,4,i,1.8,0.71,7,17,4,4.0,2.0
O=C(/C=C/c1ccc(Cl)c([N+](=O)[O-])c1)Nc1ccc(NC(=O)c2ccco2)cc1,-6,i,-0.3,0.69,/,4,7,-1.7,-1.4
COc1ccc(OCC(O)CN2CCN(c3ccc(OC)cc3)CC2)cc1 (stereo not drawn),0,i,1.6,0.65,99*,8,14,1.6,2.8
O=S(=O)(c1ccc(F)cc1)N1CCN(CC(O)COCc2cccs2)CC1 (stereo not drawn),-1,/,-2.4,0.67,-6,/,/,/,2.5
CC1CCN(C(=O)Cn2nnc(-c3ccc(N)cc3)n2)CC1,-9,i,-0.1,0.67,/,15,19,1.1,2.6
CC(=O)Nc1ccc(CN2CCC2(C)C(=O)NC2CCN(Cc3ccccc3)CC2)cc1 (stereo not drawn),/,i,2.3,/,/,9,13,-2.3,/
O=C1CSC(c2ccccc2)N1c1cccnc1 (stereo not drawn),6,i,-2.2,0.66,93*,-2,-9,2.7,3.2
O=C(C1CCC1)N1CCN(S(=O)(=O)c2ccc([N+](=O)[O-])cc2)CC1,10,i,0.1,0.66,-24,6,17,-2.8,2.7
Cn1c(N)c(C(=O)CSc2nc3ccccc3c(=O)n2Cc2ccccc2)c(=O)n(C)c1=O,13,i,-0.5,0.66,-13,5,8,8.0,0.2
Cc1ccc(C(c2sc3nc(C)nn3c2O)N2CC(C)OC(C)C2)cc1 (stereo not drawn),-2,/,-0.9,0.73,0,/,/,/,1.7
C=C(C)Cn1c(=O)c2c(nc3n2CC(C)CN3Cc2ccccc2)n(C)c1=O (stereo not drawn),-10,i,0.5,0.67,-2,-24*,-14*,-3.4*,7.8
CCOC(=O)c1ccc(NC(=S)Nc2ccccn2)cc1,-2,/,2.6,0.74,/,/,/,/,0.6
Cc1cc(NC(=O)Nc2cccc(Cl)c2)n(-c2ccccn2)n1,-1,i,4.7,0.61,-15,-53,-74,-12,1.9
CCCC(=O)NCCCc1nc2ccccc2n1CC,0,i,1.4,0.68,10,-2,5,-5.3,1.2
Cn1ccs/c1=N\S(=O)(=O)c1ccc(F)cc1,1,/,-8.0,/,-3,/,/,/,/
CC(C)C[C@@H](CN=[N+]=[N-])N1CCN(Cc2ccccc2)CCC1=O,-12,i,0.1,/,-3,10,-2,-8.8,0.1
O=C(CN(C(=O)CNS(=O)(=O)c1ccccc1)C1CCCC1)NCC1CCCO1 (stereo not drawn),-7,/,1.4,0.76,0,/,/,/,1.5
CCSc1nnc(NC(=O)C2CCN(C(=O)c3ccc(F)cc3)CC2)s1,-16,i,-0.9,0.69,-21,/,/,/,0.8
COc1cc(NC(=O)c2ccc([N+](=O)[O-])o2)ccc1NC(=O)c1ccco1,30,i,-3.8,0.69,-23,-22*,11*,0.4*,7.2
Cc1cc(C)c(N(CC(=O)NC(C)(C)C)C(=O)CNC(=O)c2cccs2)c(C)c1,3,i,0.4,0.66,-1,10,12,2.0,1.2
COc1ccc(NC(=O)c2cccc3ccccc23)cc1OC,/,i,1.6,/,/,3,0,-1.1,/
Cc1nnc(NC(=O)CSc2nnc(CCc3nc4ccccc4[nH]3)n2C)s1,5,/,-1.2,0.67,8,/,/,/,2.3
COc1ccc(C2N(C(=O)N(C)C)CCN2S(=O)(=O)c2ccc(OC)cc2)cc1 (stereo not drawn),2,i,-0.2,0.67,0,4,6,1.2,-1.0
CC(C)c1ccc(/C=C(/C#N)c2nnc(NC(=O)c3ccccc3)s2)cc1,15,/,11,0.71,-7,/,/,/,-4.6
CC1CCCCN1Cc1ccc(N(C)C)cc1 (stereo not drawn),-3,i,1.2,0.66,27,2,1,-0.2,3.3
C/C(CC(=O)N1CCCC1)=N\NC(=O)c1cc2ccccc2cc1O,4,i,0.9,/,7,-37,-48,-16,/

# Reformatted: results already given.
SMILES | Beta2AR agonist | FGF22 binding | HNF4A DNA FP | E coli growth | ALR inh | rRNA inh HTS | rRNA inh HTS OD600 | rRNA inh HTS RFP | UCH37 inh
O=C(CN(C(=O)CNS(=O)(=O)c1ccccc1)C1CCCC1)NCC1CCCO1 (stereo not drawn) | -7 | / | 1.4 | 0.76 | 0 | / | / | / | 1.5
CCSc1nnc(NC(=O)C2CCN(C(=O)c3ccc(F)cc3)CC2)s1 | -16 | i | -0.9 | 0.69 | -21 | / | / | / | 0.8
COc1cc(NC(=O)c2ccc([N+](=O)[O-])o2)ccc1NC(=O)c1ccco1 | 30 | i | -3.8 | 0.69 | -23 | -22* | 11* | 0.4* | 7.2
Cc1cc(C)c(N(CC(=O)NC(C)(C)C)C(=O)CNC(=O)c2cccs2)c(C)c1 | 3 | i | 0.4 | 0.66 | -1 | 10 | 12 | 2.0 | 1.2
COc1ccc(NC(=O)c2cccc3ccccc23)cc1OC | / | i | 1.6 | / | / | 3 | 0 | -1.1 | /
Cc1nnc(NC(=O)CSc2nnc(CCc3nc4ccccc4[nH]3)n2C)s1 | 5 | / | -1.2 | 0.67 | 8 | / | / | / | 2.3

# Continuation:
SMILES,Beta2AR agonist,FGF22 binding,HNF4A DNA FP,E coli growth,ALR inh,rRNA inh HTS,rRNA inh HTS OD600,rRNA inh HTS RFP,UCH37 inh
Cn1c(NCCCN2CCOCC2)nc2c1c(=O)n(Cc1ccc(Cl)cc1)c(=O)n2C,3,/,2.5,0.72,-5,/,/,/,1.9
CCOC(=O)[C@@H]1[C@H]2COc3ccccc3[C@@H]2N2C(=O)N(c3cccc(F)c3)C(=O)[C@@]12C,-12,i,-6.4,/,6,8,13,-0.9,0.3
COc1ccc(S(=O)(=O)N(C)CC(=O)Nc2cccc(C(C)=O)c2)cc1,-5,i,-1.1,0.65,-7,-5,-6,2.2,3.8
O=C(CNS(=O)(=O)c1ccc(Br)s1)NCc1ccc(F)cc1,-5,i,1.6,0.67,-6,-4,-7,0.4,1.7
CC1CCN(CCCNC(=O)CCCNC(=O)Cn2cnc3sc4c(c3c2=O)CCCC4)CC1,-9,/,1.4,0.7,/,/,/,/,4.0
CCN(CC)c1ccc(N)cc1,-33,/,47*,/,97*,/,/,/,/
Cc1oc2cc(O)cc(O)c2c(=O)c1-c1ccc2c(c1)OCCCO2,-8,i,1.5,0.68,6,-38,-32,-3.1,2.9
NS(=O)(=O)c1cc(C(=O)N2CCc3ccccc32)c(Cl)cc1Cl,6,/,-1.6,0.71,-10,/,/,/,4.1
CC(=O)c1ccc(NC(=O)C2=CC(c3ccco3)=NS(=O)(=O)N2C)cc1,8,i,4.5,0.69,-7,4,4,-0.2,12
CC(NC(=O)CCc1nnc(-c2ccccc2)o1)c1ccccc1 (stereo not drawn),-7,i,1.0,0.7,/,0,2,-9.5,2.2
COc1ccc(N(CC(=O)N2CCN(Cc3ccccc3)CC2)S(=O)(=O)c2ccccc2)cc1,3,i,1.6,0.73,-9,-17,-17,1.4,-0.5
Cc1ccnc(SCc2nc3ccccc3s2)n1,-7,/,0.0,0.65,-1,/,/,/,0.9
CCOc1ccc(NC(=O)CNC(=O)c2nn(-c3ccc(OC)cc3)c(=O)c3ccccc23)cc1,1,i,3.3,0.7,3,7,10,-2.0,-423
O=C(c1ccc([N+](=O)[O-])cc1)N(C1=NCCCCS1)c1ccccc1,2,/,-0.2,0.71,-4,/,/,/,0.0
Cc1ccc(OCCC(=O)Nc2ccc(F)c(Cl)c2)cc1,-10,i,-2.8,0.67,0,-10,-8,1.6,2.3
CCOC(=O)Cc1csc(N/C(=N/S(=O)(=O)c2cc(Br)ccc2OCC)c2ccccc2)n1,0,i,1.4,0.69,-2,-31,-30,-7.9,5.0
O=C(CCc1nnc(CCc2c[nH]c3ccccc23)o1)NC1CCC1,-3,i,7.1,0.7,/,11,6,3.9,3.8
N#Cc1cccc(NC(=O)Cn2cnc(S(=O)(=O)N3CCOCC3)c2)c1,-2,/,-0.2,0.7,-20,/,/,/,4.1
CCCCn1c(Nc2ccccc2)nc2ccccc21,-16,/,0.8,0.68,7,16,23,6.5,1.4
Cc1cc(O)ccc1N=Cc1c(C(F)(F)F)[nH][nH]c1=O,-8,i,-3.7,0.67,99*,17,10,65,5.3
O=C(Cc1cccc(NC(=O)C2CCN(C(=O)C3CC3)CC2)c1)Nc1cccc(C(=O)N2CCOCC2)c1,-2,i,-0.3,0.68,/,3,2,-2.7,3.2
CSc1ccccc1C(=O)NCCOc1cccc(C)c1,-3,i,0.1,0.69,/,-5,2,2.3,0.6
COc1cc2c(cc1OC)C(C(=O)NCCN1CCOCC1)C1c3ccccc3CCN1C2=O (stereo not drawn),1,/,0.7,0.7,-4,/,/,/,-2.3
CCOC(=O)N1CCC(c2nc3ccccc3[nH]2)CC1,5,/,5.2,0.67,-2,/,/,/,2.6
C=CCC1(CC=C)CCCN1C(=O)C1CCC(=O)N(CCc2ccc(OC)cc2)C1 (stereo not drawn),8,i,1.7,0.68,2,-3,0,-1.0,5.4
FC(F)(F)c1cnc(-c2cnc(-c3cccnc3)nc2)c(Cl)c1,-4,i,1.5,0.7,-1,8,17,-0.1,-0.1
CCC1(C)Cc2c(sc3c2c(=O)n(C)c2nnc(SCc4ccccc4)n32)CO1 (stereo not drawn),-14,/,-0.7,0.7,-6,/,/,/,1.8
Cn1c(/C(C#N)=C(\O)c2ccc(Cl)s2)nc2ccccc21,-16,i,0.5,0.7,1,-1,4,-3.7,-86
O=C(NC1CC2CCC1C2)c1ccco1 (stereo not drawn),-1,i,0.0,0.69,-6,-24,-34,-9.0,3.5
